Screening results: PubChem, National Center for Advancing Translational Sciences (NCATS)
VDR inhibitor: vitamin D3 receptor (human) inhibition; P11473; VDR-SRC2-3 peptide fluorescence polarization, 2 h; Potency, µM, without a hit: max response, negative = inhibition, actives largely listed as inhibitors; actives 0.93% (n = 400,000); AID 504847; active = well fitted inhibition curve with a large enough effect; inconclusive = small, poorly fitted or top-dose-only effect, or another doubt; inactive = no such curve, though single readings can be large or run the other way; also: series mostly up to about 120 µM
Target sequence (P11473 whole entry, looked up): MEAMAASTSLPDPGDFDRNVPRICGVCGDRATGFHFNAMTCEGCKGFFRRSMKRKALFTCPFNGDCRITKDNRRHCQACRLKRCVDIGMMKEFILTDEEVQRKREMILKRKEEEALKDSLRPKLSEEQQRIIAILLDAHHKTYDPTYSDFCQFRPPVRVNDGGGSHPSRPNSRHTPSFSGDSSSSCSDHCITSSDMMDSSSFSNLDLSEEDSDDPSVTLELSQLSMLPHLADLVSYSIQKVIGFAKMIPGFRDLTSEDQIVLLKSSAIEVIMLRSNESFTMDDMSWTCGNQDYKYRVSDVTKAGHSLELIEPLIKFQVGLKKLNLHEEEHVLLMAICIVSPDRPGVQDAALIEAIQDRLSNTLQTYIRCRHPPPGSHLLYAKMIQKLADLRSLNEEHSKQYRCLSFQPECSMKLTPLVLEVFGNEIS
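After 23 nl compound addition and a short centrifugation, plates sat for 2 hours at ambient temperature; polarization of fluorescence then indicated loss of VDR binding to peptide SRC2-3.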
Numbers without * were called inactive; ? = inconclusive; & = joins results of further samples. % is scaled to controls: 0 for no effect and ±100 for the full control effect; potency is read from the fitted curve at half-maximal effect.

VDR inhibitor	SMILES
-14%	O=C1C=C(N(CCO)CCO)C2(CCCCC2)O1
-10%	COc1cccc(NC(=O)CN(C)C(=O)CCC(=O)c2cc(C)sc2C)c1
4%	Cc1cc(C)c(S(C)(=O)=O)c(S(=O)(=O)c2ccc(Cl)cc2)n1
13%	O=C(NC1CCOC1=O)c1ccccc1 (configuration not stated)
-5%	COc1cc(C2C3=C(CCCC3=O)Nc3[nH]n(-c4ccccc4)c(=O)c32)ccc1O (configuration not stated)
5%	COc1ccc(Cc2c(C)nn(-c3nc(C)c(C(=O)Nc4cccc(C(C)=O)c4)s3)c2C)cc1
-3%	CCc1cc2c(cc3c(=O)n(CC(=O)NCCc4ccc(OC)cc4OC)nc(CC)n32)s1
-2%	O=C(CSc1nnc(-c2ccccc2)n1-c1ccccc1)c1cccs1
7%	O=C(NC(=O)c1cccc(F)c1)Nc1ccc(-c2cc(C(F)(F)F)nn2-c2ccccc2)cc1
-20%	CCOC(=O)Nc1ccc(OC(=O)Oc2ccc(NC(=O)OCC)cc2)cc1

Later entries.
VDR inhibitor	SMILES
6%	Cc1cc(C)nc(NS(=O)(=O)c2ccc(NC(=O)COc3ccccc3F)cc2)n1
?	C=CCNC(=S)/N=c1/ccccn1CCC
-20%	O=C1c2ccccc2C(=O)N1c1ccc(Br)c2cccnc12
-3%	S=C(NCCc1ccccc1)Nc1ccc(Nc2ccccc2)cc1
-1%	CCOC(=O)c1ccccc1NC(=O)/C=C/c1cc(OC)c(OC)c(OC)c1
-4%	CCOC(=O)Cc1csc(SCC(=O)/C(C#N)=C(\C)N)n1
-3%	Cc1ccc2onc(CC(=O)N(C)c3ccccc3)c2c1
-19%	CCOc1ccc(OCC)c(S(=O)(=O)NC2CC(C)(C)NC(C)(C)C2)c1
-3%	Clc1ncccc1-c1nc2ccccc2s1
15%	O=C(c1sc(N2CCOCC2)nc1-c1ccccc1)N1CCCCC1

The results go on.
VDR inhibitor	SMILES
11%	CCC(C)C(=O)N1c2ccccc2C(=C2SC(C(=O)OC)=C(C(=O)OC)S2)C(=S)C1(C)C (configuration not stated)
-15%	COc1cccc(NC(=S)NC(=O)/C=C/c2ccco2)c1
-11%	O=C(c1cc(Br)c(Br)s1)N1CCN(C/C=C/c2ccccc2)CC1
5%	O=[N+]([O-])c1ccccc1S(=O)(=O)Nc1ccc(-c2ccc(N3CCOCC3)nn2)cc1
-5%	CCOC(=O)C1CCCN(Cc2nc(N)nc(Nc3ccccc3OC)n2)C1 (configuration not stated)
-15%	CN1CCN(C(=O)c2ccc3c(c2)S(=O)(=O)c2ccccc2C3=O)CC1
-3%	COc1ccc(N(CC(=O)NCc2ccc(Cl)cc2)S(=O)(=O)c2c(C)n[nH]c2C)cc1
-10%	CCc1c(C)nc2nncn2c1Nc1ccc(C)c(F)c1
-8%	Clc1ccc(OCc2nc(-c3ccncc3)no2)cc1
-5%	CC(C)(C)c1ccc(S(=O)(=O)NCC(=O)N2CCN(Cc3ccccc3)CC2)cc1

Carrying on.
VDR inhibitor	SMILES
-10%	CC(=O)N1CCC2(CC1)CN(Cc1ccccc1)C2
-17%	O=C(N/C(=C/c1cccc([N+](=O)[O-])c1)C(=O)N1CCOCC1)c1ccccc1Br
5%	COc1ccc(/C=N/NC(=O)c2ccccc2O)cc1Cn1cc([N+](=O)[O-])cn1
-5%	CCCN(CCC)C(=O)c1ccc2c(c1)OCO2
-10%	COc1cccc2sc(N(CCN(C)C)C(=O)/C=C/c3cccs3)nc12
-11%	Cc1nc2cncnc2n(C2CC2)c1=O
-4%	CCOc1ncccc1C(=O)Nc1cc(C(F)(F)F)ccc1N1CCOCC1
2%	COc1ccc(CNC(=O)CCCn2ncn3c(cc4occc43)c2=O)cc1
-24%	Cc1cccc(C)c1NC(=O)CC(NCCc1ccccc1)C(=O)O (configuration not stated)
0%	CCS(=O)(=O)N1CCc2cc(C(=O)Nc3cccc(C(C)=O)c3)ccc21

Later entries
VDR inhibitor	SMILES
-8%	Cc1ccccc1C(=O)NC1CCN(CC(=O)Nc2ccc3c(c2)OCO3)CC1
-17%	Cc1ccc(CNC(=O)COc2ccc(C)nc2[N+](=O)[O-])cc1
-6%	CCOc1cc(-c2noc(CCCC(N)=O)n2)cc(Br)c1OC
-9%	N#Cc1cccc(Nc2c3c(nc4ccccc24)CCC3)c1
-20%	C[C@@H]1COC(=O)[C@@H](CC(=O)OC(C)(C)C)C/C=C\C[C@@H](CC(=O)NCCO)C(=O)N1
-3%	O=C(CN1CCCC1)Nc1ccc2c(c1)CCC2
-7%	CC1CCCC(NC(=O)c2cc(-c3ccncc3)nc3ccccc23)C1C (configuration not stated)
-6%	O=C(NNC(=O)c1cccc2ccccc12)c1ccco1
-8%	Cc1ccc(NC2=C(c3ccc(C(F)(F)F)cc3)C(=O)c3ccccc32)cc1C
8%	Cc1ccc(Nc2c(-c3ccccc3O)nc3cc(C)ccn23)cc1

Four of the compounds above, with each value named:
CCOc1cc(-c2noc(CCCC(N)=O)n2)cc(Br)c1OC
  VDR inhibitor: -6%
N#Cc1cccc(Nc2c3c(nc4ccccc24)CCC3)c1
  VDR inhibitor: -9%
C[C@@H]1COC(=O)[C@@H](CC(=O)OC(C)(C)C)C/C=C\C[C@@H](CC(=O)NCCO)C(=O)N1
  VDR inhibitor: -20%
O=C(CN1CCCC1)Nc1ccc2c(c1)CCC2
  VDR inhibitor: -3%

Following part
VDR inhibitor	SMILES
-3%	COc1cc2c(C)nc3c(c(C)nn3-c3ccccc3)c2cc1OC
-7%	O=C(C1=C(O)C(=O)N(CCCN2CCOCC2)C1c1ccccn1)c1cc2ccccc2o1 (configuration not stated)
-1%	CCOC(=O)CC1C(=O)NCCN1C(=O)Nc1ccc(Cl)cc1 (configuration not stated)
-10%	CC(C)C[C@H]1CNC(=S)N1CC1CCCN1C[C@H](Cc1ccc(O)cc1)N1C[C@H](Cc2ccccc2)N(CC2CCCCCC2)C1=S (some centres not stated)
22%	O=C(Nc1ccccc1)N1CCc2c([nH]c3ccccc23)C1C(F)(F)F (configuration not stated)
10%	COc1ccc(-c2nc(SCC(=O)NCc3nc4ccccc4n3C)n3[nH]c(=O)cc3n2)cc1
-5%	Cc1ccccc1C1CC(=O)Nc2ccc3ccccc3c21 (configuration not stated)
-4%	CCS(=O)(=O)c1nc(S(=O)(=O)c2ccc(Cl)cc2)c(N2CCC(C(N)=O)CC2)s1
-1%	Cc1ccc(Cl)cc1NC(=S)N(Cc1cccnc1)Cc1ccccc1Cl
-5%	COc1ccc(-c2nc(CS(=O)CC(=O)NCCc3ccc(OC)c(OC)c3)c(C)o2)cc1 (configuration not stated)

(list continues)
VDR inhibitor	SMILES
-1%	O=C(Cn1ncc2c(=O)oc3ccccc3c21)NCCC1=CCCCC1
-4%	CCC/C=C1/CCCOC(C(=O)NCC2CC2)(C(F)(F)F)C1 (configuration not stated)
2%	O=C(NC(=S)Nc1ccc2oc(=O)ccc2c1)c1ccccc1F
2%	COc1ccc(CNC(=O)C(=O)NCc2ccncc2)cc1
-3%	O=C1CC(c2ccccc2)CN1S(=O)(=O)c1ccccc1 (configuration not stated)
-8%	COCCNC(=O)c1c(N)n(CCCn2ccnc2)c2nc3ccccc3nc12
-7%	O=C(c1ccc(Cl)cc1)N(Cc1ccco1)C1CCS(=O)(=O)C1 (configuration not stated)
21%	CSCCC(NC(N)=O)C(=O)NCc1cccc(Cl)c1 (configuration not stated)
-3%	CCN(CC)S(=O)(=O)c1ccc(Cl)c(C(=O)Nc2ccc(Cl)cc2[N+](=O)[O-])c1
-4%	COc1ccc(OCCC(=O)NCc2ccccc2)cc1

The listing continues.
VDR inhibitor	SMILES
0%	COCCCNC(=S)NNC(=O)c1ccc(C(C)(C)C)cc1
6%	C=Cc1ccc(Cn2c(C(=O)O)c(CNCc3cccs3)c3ccc(C)cc32)cc1
-9%	COc1cc(C2(c3ccc(O)c(OC)c3)C(=O)N(C)c3ccc(Br)cc32)ccc1O
-15%	O=C(O)C1C2C=CC3(CN(Cc4ccccn4)C(=O)C13)O2 (configuration not stated)
0%	CCCCC(=O)Nc1ccc(C(=O)N2CCCC(C(=O)OCC)C2)cc1 (configuration not stated)
-17%	O=[N+]([O-])c1ccc(/C=[N+](\[O-])CCO)o1
-12%	COc1ccc(-n2c(SCC(N)=O)nc3c(oc4ccccc43)c2=O)cc1
-17%	CCOc1ccccc1NC(=O)NC1(C(=O)NCC2CCCO2)CCCCC1 (configuration not stated)
-18%	C=C1CC2COC(=O)C2(Cc2ccc3ccccc3c2)C1 (configuration not stated)
-9%	CCC(C)C(NC(N)=O)C(=O)Nc1ccc(OCc2ccccc2)cc1 (configuration not stated)

Further results:
VDR inhibitor	SMILES
-10%	Cc1n[nH]c(=O)nc1NCCc1ccccc1
-11%	COc1ccc(Cl)cc1NC(=O)c1sc2nc(-c3ccc(OC)c(OC)c3)ccc2c1N
-15%	COc1cc(NS(=O)(=O)c2ccc(NC(=O)c3ccc(C)o3)cc2)nc(OC)n1
-3%	CSC1=C(C#N)C(C)C2=C(CC(C)(C)CC2=O)N1 (configuration not stated)
-21%&-3%	Cc1nnc(N2CCC(C(=O)NC3CCC(C)CC3)CC2)c2nn(-c3ccc(Cl)cc3)c(C)c12 (configuration not stated)
-1%	Cc1ccccc1CC(=O)OCC(=O)Nc1ccc(C)c(S(=O)(=O)N2CCCCC2)c1
8%	Cc1cccc2cc(CN(CCCO)C(=O)Nc3ccc(Cl)cc3)c(=O)[nH]c12
-2%	C=CCN(C(=O)Nc1ccc(Cl)cc1)C1CC(=O)N(c2ccc(OC)cc2)C1=O (configuration not stated)
-6%	Cc1cc(NS(=O)(=O)c2ccc(NC(=O)COc3ccccc3C(C)(C)C)cc2)no1
-6%	CCOCc1cc(CN2CCN(c3cccc(Cl)c3)CC2)c(O)c2ncccc12

The results go on:
VDR inhibitor	SMILES
-21%	COc1cccc(CN2CCN(C(=O)c3ccco3)CC2)c1
-11%	Nc1nnc(SCC(=O)Nc2nccs2)s1
-8%	Cc1ccc(C)c(NS(=O)(=O)c2ccc3c(c2)NC(=O)CO3)c1
?	CCOc1ccc2nc(SCC(=O)NCc3ccc(OC)c(OC)c3)[nH]c2c1
3%	Cc1c(C(=O)N2CCN(Cc3ccc4c(c3)OCO4)CC2)sc2ncnc(N3CCN(c4ccccc4)CC3)c12
-19%	CC1=NOC(=O)/C1=C/c1ccc(O)c(Cl)c1
-1%	Cc1[nH]c2ccccc2c1CCNC(=O)c1ccc2nccnc2c1
-5%	COc1ccc(CCNC(=O)C2CCCN(S(=O)(=O)N3CCCCCC3)C2)cc1OC (configuration not stated)
11%	O=C1/C(=C\c2ccc(Br)o2)Cc2ccccc21
5%	CSc1nnc(CCNC(=O)OC(C)(C)C)o1

(next part)
VDR inhibitor	SMILES
?	CC(C)c1ccc(NC(=O)CN2C(=O)NC(C)(C3CC3)C2=O)cc1 (configuration not stated)
5%	CC(=O)c1ccc(NC(=O)COc2ccccc2-c2nc(C)no2)cc1
-28%	COc1ccc(C2CC(c3ccccc3OC(C)=O)=NN2C(C)=O)cc1 (configuration not stated)
12%	COc1ccc(C)cc1NC(=O)C1CCN(S(=O)(=O)c2ccc3c(c2)C(C)(C)C(=O)N3C)CC1
?	COc1ccc(/C=C/C(=O)c2ccc(OC)cc2OC)cc1
5%	CC(c1n[nH]c(=S)n1-c1ccccc1)N1CCCCC1 (configuration not stated)
-15%	CCOC(=O)c1cc(-c2ccccc2)n(CCC(=O)N2CCN(c3ccc(OC)cc3)CC2)c1C
4%	O=C(COc1ccccc1-c1nc(-c2ccccc2)no1)Nc1cccc([N+](=O)[O-])c1
-1%	COc1ccc(-c2cn3c(n2)sc2cc(C(=O)Nc4cccc(OC)c4)ccc23)cc1
-2%	Cc1ccccc1Nc1nc(N)nc(COC(=O)CCS(=O)(=O)c2ccc(Cl)cc2)n1

Molecules listed so far with a nitro group on carbon, in the order listed:
VDR inhibitor	SMILES
5%	O=[N+]([O-])c1ccccc1S(=O)(=O)Nc1ccc(-c2ccc(N3CCOCC3)nn2)cc1
-17%	O=C(N/C(=C/c1cccc([N+](=O)[O-])c1)C(=O)N1CCOCC1)c1ccccc1Br
5%	COc1ccc(/C=N/NC(=O)c2ccccc2O)cc1Cn1cc([N+](=O)[O-])cn1
-17%	Cc1ccc(CNC(=O)COc2ccc(C)nc2[N+](=O)[O-])cc1
-3%	CCN(CC)S(=O)(=O)c1ccc(Cl)c(C(=O)Nc2ccc(Cl)cc2[N+](=O)[O-])c1
-17%	O=[N+]([O-])c1ccc(/C=[N+](\[O-])CCO)o1
4%	O=C(COc1ccccc1-c1nc(-c2ccccc2)no1)Nc1cccc([N+](=O)[O-])c1

(continued)
VDR inhibitor	SMILES
-17%	Cc1nc2ccc(S(=O)(=O)N(C)CC(=O)NCc3ccc(N(C)C)cc3)cc2s1
-19%	CC1Sc2ccc(S(=O)(=O)CCC(=O)N3CCc4ccccc43)cc2NC1=O (configuration not stated)
11%	COc1cccc(NC(=O)NC2(C(F)(F)F)Oc3ccccc3O2)c1
-7%	Cc1ccc(N2CC(NC(=O)c3ccc(Br)o3)CC2=O)cc1C (configuration not stated)
-1%&4%	CCOC(=O)c1cccc(NC(=O)CCn2c(=O)oc3ccccc32)c1
-5%	CCOC(=O)c1cnc2c(Cl)cc(Cl)cc2c1NCCCN1CCOCC1
5%	Cn1c(=O)[nH]c(=O)c2c1nc(OC(=O)c1ccccc1)n2CC(O)COc1ccccc1 (configuration not stated)
-1%	O=C(CN1CCN(Cc2ccccc2)CC1)NCC1COc2ccccc2O1 (configuration not stated)
-6%	Clc1ccccc1C1=CC(c2ccco2)n2nnnc2N1 (configuration not stated)
1%	CC(C)(C)[C@@H](O)C(Cc1ccc(Cl)cc1)n1cncn1 (some centres not stated)

Not all compounds are listed; count on the stated rates, not on these rows.
